YopH PTP inh – YopH (Yersinia) phosphatase inhibition. inhibition, %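 (about 10 µM by stock and volumes)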. 140,000 tested, 0.16% active. AID 898. fluorescence Ex485/Em525;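 active = inhibition of 50% or more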;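 note: controls were vehicle for no effect and minimum signal wells for full effect; inactives centre near -20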
RecA splice inh – inhibitors of M. tuberculosis RecA intein splicing | cell-free RecA intein splicing, fluorescence | inhibition, %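 (about 9 µM by stock and volumes)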 | 290,000 tested, 0.75% active | AID 2221; in the data active = inhibition above about 30%; inconclusive = no clear call, values can overlap the other calls;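 note: 0% = vehicle wells and 100% = reference inhibitor control wells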
Target sequence (P9WHJ3 whole entry, looked up, canonical isoform): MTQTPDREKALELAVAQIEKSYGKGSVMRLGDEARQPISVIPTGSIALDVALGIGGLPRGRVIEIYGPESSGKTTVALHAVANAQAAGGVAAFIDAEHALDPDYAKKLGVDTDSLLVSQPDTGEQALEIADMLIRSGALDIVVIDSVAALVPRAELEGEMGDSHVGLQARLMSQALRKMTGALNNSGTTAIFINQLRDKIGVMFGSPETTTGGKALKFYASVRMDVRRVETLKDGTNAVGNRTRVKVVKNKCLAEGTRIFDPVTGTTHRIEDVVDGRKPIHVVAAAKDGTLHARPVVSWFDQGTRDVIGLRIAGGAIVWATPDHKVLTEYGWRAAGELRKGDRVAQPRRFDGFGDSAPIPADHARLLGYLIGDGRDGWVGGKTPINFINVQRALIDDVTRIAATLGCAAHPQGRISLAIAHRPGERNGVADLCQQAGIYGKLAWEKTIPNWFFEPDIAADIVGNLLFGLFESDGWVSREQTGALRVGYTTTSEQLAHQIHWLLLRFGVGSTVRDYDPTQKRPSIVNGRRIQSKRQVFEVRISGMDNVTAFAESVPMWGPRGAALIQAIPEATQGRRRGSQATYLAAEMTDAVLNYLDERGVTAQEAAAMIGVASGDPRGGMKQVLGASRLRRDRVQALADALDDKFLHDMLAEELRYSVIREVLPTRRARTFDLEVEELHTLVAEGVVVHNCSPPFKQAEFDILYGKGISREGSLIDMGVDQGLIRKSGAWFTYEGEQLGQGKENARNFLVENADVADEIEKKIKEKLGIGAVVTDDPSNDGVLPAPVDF
Arbovirus inh – blocks arbovirus infection | inhibition, % at 10 µM | arbovirus infection cell-based antiviral screen | 200,000 tested, 0.37% active;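 active = inhibition from about 30%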;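 note: bluetongue infection of BSR cells; cell survival read as ATP light after 72 h; 0% = infected wells without compound and 100% = uninfected wells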
Mtb growth – M. tuberculosis H37Rv growth inhibitors, H37Rv strain (AID 1626); 220,000 tested, 0.95% active; M. tuberculosis H37Rv growth inhibition; higher % means a stronger effect; inhibition, % at 10 µM, or IC50 in µM where a hit was titrated;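 active = confirmed in a dose series; inconclusive = inhibition above 80% but not taken into the dose series; inactive = below 80% or under 30% at every dose of the series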;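 note: bacteria incubated seven days before Alamar blue readout; 0% = bacteria only wells and 100% = bacteria with antibiotic wells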
Mtb bLac sens – beta-lactam sensitization of Mtb H37Rv. 330,000 tested, 0.27% active. inhibition, % at 25 µM. M. tuberculosis H37Rv growth with meropenem, percent inhibition; hits of this screen are not shown here. AID 434955;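 active = about 74% or more and at least 40 points above the plate without the antibiotic, then above 30% in a dose series; inconclusive = first-round hits that could not be retested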;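 note: growth measured after seven days incubation then overnight dye step; 0% = bacteria only wells and 100% = bacteria with antibiotic; twin plates without the antibiotic show which effects depend on it; some results filed as inactive read as strong as hits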
Arbovirus inh repeat – second read-out of Arbovirus inh, no call of its own (marks repeat the call); inhibition, %; measured here: 10K subset replicate screen; many hits read low in the repeat;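 first of two repeat runs on a subset; 0% = infected and 100% = uninfected wells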
* marks the source's active call; other numbers are inactive results; ? = inconclusive; · = not tested or not shown. A portion of the library. The share of hits here may be higher or lower than overall.

SMILES	YopH PTP inh	RecA splice inh	Arbovirus inh	Mtb growth	Mtb bLac sens	others
Cc1nc2ccccc2c(=O)n1NC(=O)/C=C/c1ccccc1Cl	-35	1.5	0	-8%	4
COC(=O)c1ccc(NC(=O)CSc2nncn2-c2ccccn2)cc1	·	2.1	·	·	-3
CCN(CC)CCN(C(=O)c1ccc(S(=O)(=O)N2CCCCC2)cc1)c1nc2cc3c(cc2s1)OCO3	·	1.7	12	10%	1
O=C(CS(=O)(=O)Cc1ccccc1)Nc1nnc(C(F)(F)F)s1	·	-1.2	·	·	99
COc1cc2ccccc2cc1C(=O)N1CCCC1	·	-0.2	·	·	-3
COc1ccccc1CNC(=O)CCC(=O)N1CC(C)Sc2ccccc21 (stereo not drawn)	·	4.4	·	·	-8
Cc1c(C(=O)NC2CCCCC2)oc2ccccc12	·	0.1	·	·	6
O=C(O)C1CC(=O)N(Cc2ccccc2)C1 (stereo not drawn)	-11	3.9	4	-6%	3
O=S(=O)(NCc1ccc2c(c1)OCO2)c1c(F)cc(F)cc1Br	·	1.6	·	·	3
CCOC(=O)N/N=C/c1cn(Cc2ccc(Cl)cc2)c2ccccc12	13	7.9	-5	4%	5
CCN(CC(=O)Nc1ccc2c(c1)OCCO2)CC(=O)Nc1cc(C)on1	-47	-9.0	4	-7%	-19
Cc1cc(C)cc(NC(=S)NCCCN2CCOCC2)c1	-10	-2.7	3	-13%	5
O=C(O)c1ccc2c(c1)nnn2C1CCCCC1	1	5.6	8	2%	7
O=C(CCC1CCCC1)N1CCN(C(=O)c2ccco2)CC1	-27	0.4	-3	2%	-5	Arbovirus inh repeat=1
Cc1nc2c(C)cccc2cc1C(=O)N/N=C/c1ccc(C(=O)O)cc1	·	10.0	4	-2%	9
CCc1nc2ccc(C(=O)N3CCN(CC)CC3)cc2nc1CC	·	-5.6	·	·	-2
Clc1ccc(Cl)c(-c2nc(-c3ccncc3)no2)c1	·	-2.4	·	·	0
CN(C)CCn1nnc2c(=O)oc3ccccc3c21	·	7.5	3	-2%	-5
Cc1[nH]c2ccccc2c1/C=N/NC(=O)c1cc(-c2cccs2)[nH]n1	-28	9.9	4	4%	11
COc1ccc(-c2nnco2)cc1OC	11	-1.0	2	1%	6
CC(=O)N=c1sc2c3ccccc3ccc2n1C	0	1.1	-5	5%	4
Cc1cccc(OCC(=O)Nc2nonc2NC(=O)COc2cccc(C)c2)c1	-13	·	12	-1%	?
COc1ccc2cc(-c3csc(-c4cccnc4)n3)ccc2c1	-8	1.0	-24	12%	48
COc1cccc(NC(=O)CN(C)C(=O)c2cc3c(s2)CCC(C)C3)c1 (stereo not drawn)	·	3.2	·	·	-4
Cc1c(C)n(C(=O)CSc2nncn2C)c2ccccc12	-24	3.2	4	-9%	-5	Arbovirus inh repeat=-3
O=C1CCCN2N=C(SCC(=O)Nc3cccc(F)c3)SC2=N1	·	0.4	·	·	-2
O=C(NCCOc1ccccc1)c1ccc2c(c1)OCO2	-30	-0.4	-2	5%	1
CCNC(=O)C(=O)c1c(-c2ccccc2)[nH]c2ccccc12	·	·	-2	-3%	4
COc1cccc(NC(=O)NC(=O)c2c(C)cc(Cl)nc2Cl)c1	·	-1.7	·	·	2
Cc1nc2ccccc2nc1OCc1ccc([N+](=O)[O-])cc1	·	5.1	3	2%	-2
O=C(COC(=O)c1cc(Cl)cc(Cl)c1)NCCN1C(=O)CSC1=O	-10	-6.5	7	0%	6
CC(=O)n1nc(-c2ccccc2)nc1NCc1cccs1	·	-1.8	-5	3%	-7
CCOc1ccccc1N1CCN(C(=O)CCCN2C(=O)c3cccc4cccc(c34)C2=O)CC1	-33	5.5	-5	0%	9
COc1ccc(CNC(=O)/C=C/c2ccc(S(=O)(=O)N3CCOCC3)cc2)cc1	·	-4.1	-5	-4%	4
CN1CCN(CC(=O)N2CCn3c4c(c5cc(C6CCCCC6)ccc53)CCCC42)CC1 (stereo not drawn)	-23	15	-41	?	?
COCc1cc(=O)[nH]c(SCCS(=O)(=O)c2ccc(Cl)cc2Cl)n1	·	0.7	·	-3%	55
C=CCN1C(=O)N(c2ccc(F)cc2)C(=O)C1CC(=O)Nc1ccc(Cl)cc1 (stereo not drawn)	·	0.8	·	1%	-5
Clc1ccc(OCCCCCN2CCCC2)c(Br)c1	-14	-3.7	-26	7%	1
O=C(N/N=C\c1ccc(OC(=O)c2cccs2)cc1)c1ccc(Cl)cc1	-34	2.3	-24	68%	27
Cc1cc(C(=O)NCc2nc(-c3ccccc3)no2)ccc1[N+](=O)[O-]	·	0.3	-2	5%	-11
COc1cc2c(cc1OC)C(C1c3cc4c(cc3CCN1C)OCO4)OC2=O (stereo not drawn)	·	1.0	·	·	-1
CCOC1(OCC)N=C(N)C2(C#N)C(c3cccc(OC)c3OC)C12C#N (stereo not drawn)	-31	0.4	10	-7%	0
COc1ccc(NC(=O)CSc2ccc(-c3sc(C)nc3C)nn2)cc1	·	-2.9	·	·	-11
Cc1cccc(-n2ncc3c(NC(C)C)ncnc32)c1	-17	0.8	-2	16%	-2	Arbovirus inh repeat=1
Cc1ccc(SCCc2ccc(C)nc2)cc1	-8	3.7	3	8%	1
COCCC1CCCCN1C(=O)c1ccc(OC2CCN(C(C)=O)CC2)c(OC)c1 (stereo not drawn)	·	-1.2	·	·	4
O=C(Nn1c(-c2ccncc2)nc2ccccc2c1=O)c1ccc([N+](=O)[O-])cc1Cl	·	-0.2	1	-3%	-6
CCOc1ccc(NC(=O)CCNc2c(N3CCCC3)c(=O)c2=O)cc1	-17	-2.3	1	2%	-3

The last seven records of the part before are carried over, then new ones follow:
SMILES	YopH PTP inh	RecA splice inh	Arbovirus inh	Mtb growth	Mtb bLac sens	others
CCOC1(OCC)N=C(N)C2(C#N)C(c3cccc(OC)c3OC)C12C#N (stereo not drawn)	-31	0.4	10	-7%	0
COc1ccc(NC(=O)CSc2ccc(-c3sc(C)nc3C)nn2)cc1	·	-2.9	·	·	-11
Cc1cccc(-n2ncc3c(NC(C)C)ncnc32)c1	-17	0.8	-2	16%	-2	Arbovirus inh repeat=1
Cc1ccc(SCCc2ccc(C)nc2)cc1	-8	3.7	3	8%	1
COCCC1CCCCN1C(=O)c1ccc(OC2CCN(C(C)=O)CC2)c(OC)c1 (stereo not drawn)	·	-1.2	·	·	4
O=C(Nn1c(-c2ccncc2)nc2ccccc2c1=O)c1ccc([N+](=O)[O-])cc1Cl	·	-0.2	1	-3%	-6
CCOc1ccc(NC(=O)CCNc2c(N3CCCC3)c(=O)c2=O)cc1	-17	-2.3	1	2%	-3
CCCNC(=S)NC1CC2CCCC(C1)N2CC(C)C (stereo not drawn)	-32	1.0	11	0%	-1
CCN(CC)S(=O)(=O)c1cccc(C(=O)NCC(=O)OCC(=O)NCc2ccccc2)c1	-46	3.9	12	-5%	-5
Cc1ccc(-n2c(O)c(C=NCCC3=CCCCC3)c(=O)[nH]c2=O)cc1	·	0.7	-9	-5%	-5
NC(=O)c1c(N)sc2c1CCCCC2	-36	-3.6	3	5%	-4
C=CCn1c(CCNC(=O)c2ccccc2F)nnc1SCC(=O)Nc1nc2ccccc2s1	2	0.5	6	-9%	-4
O=C(N/N=C/c1ccncc1)c1cccc(N/N=C/c2ccncc2)c1	·	-0.8	-3	5%	-6
CN(C)c1cc[n+](CC(=O)Nc2ccc([N+](=O)[O-])cc2Cl)cc1	-2	3.3	14	-7%	2
COc1ccccc1NC(=O)C1=C(C)Nc2ncnn2C1c1ccc(C)o1 (stereo not drawn)	12	-1.4	4	-8%	-6
N#C/C(=C(/O)Cc1ccccc1)P(=O)(c1ccccc1)c1ccccc1	·	3.3	·	-7%	-4
Cc1ccc(-n2c(C)nnc2SCC(=O)NNC(=O)c2ccco2)cc1	·	-2.7	7	11%	-3
C=CCC1(O)C(=O)N2C(=C1C(=O)N1CCOCC1)c1ccccc1CC2(C)C (stereo not drawn)	-20	-2.4	6	-8%	-8	Arbovirus inh repeat=3
Cc1ccc(SC2=C(C(=O)O)CCCC2)cc1	·	-0.2	·	·	0
CCOc1ccc2[nH]c(=O)c(CN(Cc3ccccc3)C(=O)N3CCCC3)cc2c1	-5	0.4	1	-3%	2
CC(C)=CCN1CCN(Cc2c(C)nn(C)c2Cl)CC1CCO (stereo not drawn)	·	-1.7	-7	-6%	0
Cc1ccccc1CNC(=O)CN1C(=O)c2ccccc2S1(=O)=O	·	3.9	·	·	1
Cc1ccc(S(=O)(=O)Nc2cc(NC(=O)CN3CCOCC3)ccc2Cl)cc1	-44	-3.2	10	-26%	6
Cn1cnc(S(=O)(=O)Nc2ccccc2C(=O)NCC2CC2)c1	·	-0.7	·	-7%	-5
CC(Cc1cccs1)NC(=O)Nc1ccc(Cl)c(Cl)c1 (stereo not drawn)	-1	18	-37	·	99
CCC(=O)Nc1nnc(/C=C/c2ccccc2)s1	·	-1.0	·	·	4
COc1ccc([N+](=O)[O-])cc1N(CC(O)CN(C)C)S(=O)(=O)c1ccccc1 (stereo not drawn)	-27	-0.1	5	-14%	1
CCOC(=O)c1cccc(NC(=O)CN2C(=O)C3CC=CCC3C2=O)c1 (stereo not drawn)	·	-2.0	·	·	-4
Cc1ccc(C)c(N2CCN(C(=O)c3ccc(CS(=O)Cc4cccc(Cl)c4)o3)CC2)c1 (stereo not drawn)	·	0.7	·	·	6
Cc1ccc(-c2n[nH]c(S(C)(=O)=O)c2C#N)cc1	·	-4.2	·	-11%	4
COc1cccc(-n2c(CN3CCN(c4ccccn4)CC3)nc3ccc([N+](=O)[O-])cc3c2=O)c1	·	-0.1	-3	6%	-5
Cc1ccc(C)c2c1cc(C)c1nnc(SCc3ccccn3)n12	-35	-1.0	0	-1%	9
CCN(CC)c1ccc(-c2nnc(SCC(=O)Nc3ccccc3C#N)n2-c2ccccc2)cc1	-8	-0.1	-5	5%	32
Cc1cc(NC(=O)NC(=O)c2ccc(F)cc2F)n[nH]1	-26	-1.9	-10	-7%	-6
O=C(Nc1cccc2c1CCCC2)c1ccncc1	1	-1.0	0	0%	10
O=C1CC2(CCN(C(=O)c3ccccc3Cl)CC2)Oc2ccccc21	·	-2.4	·	·	-6
O=C(NC(CCl)c1ccccc1)c1ccc(Cl)cc1 (stereo not drawn)	·	-3.1	4	4%	-1
O=C(CSc1nc(-c2ccccc2)cs1)NCc1ccco1	-12	5.1	-5	4%	10
C=CCN1C(=O)C2(c3ccccc31)C1CCCC=C1C(C#N)=C(N)C2(C#N)C#N (stereo not drawn)	3	0.8	-2	0%	9
CCCCCOc1ccc(N2C(=O)C(C)CNC2=S)cc1 (stereo not drawn)	·	0.3	·	-6%	-1
CC(C)(C)NC(=O)NC(=O)COC(=O)Cc1ccc(Cl)cc1Cl	·	5.9	2	-3%	0
CC1=C(C(=O)Nc2cccc(C(=O)NC3CCCCC3C)c2)SCCO1 (stereo not drawn)	·	0.2	·	·	-4
CN(C)S(=O)(=O)c1ccc(C(=O)OC2CCOC2=O)cc1 (stereo not drawn)	·	-1.3	·	·	8
C/C(=N\NC(=O)CNC(=O)C(c1ccccc1)c1ccccc1)c1ccccc1	-58	0.2	-9	-18%	4
CC(=O)Nc1ccc(S(=O)(=O)N(C)c2ccc(OCC(=O)OCC(=O)Nc3ccc(OC(F)F)cc3)cc2)cc1	·	4.9	·	-4%	-4
Cn1nnnc1SCc1nc2ccccc2[nH]1	-18	-0.2	1	-1%	2	Arbovirus inh repeat=-2
CCCCN(C)C(=O)c1ccc2c(c1)N(CC)C(=O)c1ccccc1S2=O (stereo not drawn)	·	-1.2	·	·	1
COC(=O)C1CC(c2ccc(Cl)cc2)=NO1 (stereo not drawn)	·	-1.3	-2	5%	-7
CCCCCC(=O)NC(Cc1ccc(OC)c([N+](=O)[O-])c1)C(=O)O (stereo not drawn)	·	1.5	3	9%	2
CN(C)c1ccnc(Oc2ccc(Cl)cc2)c1C#N	-27	3.0	-8	9%	3
CCOc1ccc(NC(=O)C2C3CC/C=C\CCC32)cc1 (stereo not drawn)	·	1.7	·	0%	16
COc1ccccc1N1CCN(C(=O)COc2ccc(C)cc2Br)CC1	1	2.8	2	-8%	2	Arbovirus inh repeat=-10
COc1ccc(-c2csc3ncnc(N4CCN(S(=O)(=O)c5cccc(Br)c5)CC4)c23)cc1	·	9.9	·	·	1
Cc1cc(C)cc(Oc2ccccc2/C=N\O)c1	-31	16	-6	9%	1
CCC1(c2ccccc2)NC(=O)N(Cc2ccc(C(=O)OC)cc2)C1=O (stereo not drawn)	-26	0.4	5	0%	-8
Cc1onc(-c2c(F)cccc2Cl)c1C(=O)NCc1ccc2c(c1)OCO2	·	-1.4	·	·	-11
